PK Bst = alters activity of Bacillus stearothermophilus pyruvate kinase; Potency, µM; partly purified Bacillus stearothermophilus pyruvate kinase, luminescence ATP production; ribose 5-phosphate activator present at AC10; actives 1.2% (n = 51,000); in the data active means potency below about 11 µM; inconclusive means mostly about 12 µM to 25 µM; inactive means weaker than that;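 the screen sought inhibitors and activators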;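 also: potency is read from the fitted curve at half-maximal effect; scaled between full activation by ribose 5 phosphate and full inhibition by luteolin; about four in five hits inhibit and the cells do not say which; series up to 57 µM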
YjeE inh = inhibitors of E. coli YjeE (TsaE); P0AF67; purified YjeE, fluorescence polarisation of a bound ADP probe; Potency, µM; actives 0.05% (n = 71,000); AID 605; active = well fitted falling curve; inconclusive = weaker or top-dose-only fall, or a rising curve; inactive = flat or poorly fitted curve;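 also: top concentration of the series not given in the record; excess ADP was the control for the full effect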
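Purified YjeE (10 uM) with BODIPY Texas Red-labeled ADP probe (2 uM); compounds pin-transferred, 15 min at room temperature. Binding inhibition read as decreased fluorescence polarization; ADP titration as control.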
Numbers without * were called inactive.

Screening Cc1cccc(C(=O)N2CCN(Cc3ccc4c(c3)OCO4)CC2)c1 returned YjeE inh inactive.
`Cc1ccc(C)c(S(=O)(=O)NCCOC(=O)Nc2sc(=S)n(C)c2C)c1` gave YjeE inh inactive.
C=CCOc1ccccc1CNCc1cccnc1 was read as PK Bst >57 and YjeE inh inactive.
Screening CN(c1ccccc1)S(=O)(=O)c1cccc(C(=O)N2CCN(c3ccccn3)CC2)c1 returned PK Bst >57 and YjeE inh inactive.
O=C(Nc1cnn(Cc2ccc(Cl)cc2Cl)c1)c1cc(-c2cccs2)on1 was read as PK Bst >57 and YjeE inh inactive.
`COc1ccc(CN2CCN(S(=O)(=O)c3ccc(NC(C)=O)cc3)CC2)cc1OC` gave PK Bst >57 and YjeE inh inactive.
Cc1csc(=Nc2c(C)n(C)n(-c3ccccc3)c2=O)n1Cc1ccccc1 was read as PK Bst >57 and YjeE inh inactive.
Screening c1ccc2c(c1)ccc1ncccc12 returned YjeE inh inactive.
COc1ccc(C(=O)N2CCN(S(=O)(=O)c3cc(Cl)ccc3OC)CC2)cc1 was read as PK Bst inconclusive and YjeE inh inactive.
O=C(CN(C1CCCCC1)S(=O)(=O)c1ccc(F)cc1)NCc1ccncc1 was read as YjeE inh inactive.
`O=S(=O)(c1ccc(S(=O)(=O)N2CCN(C/C=C/c3ccccc3)CC2)cc1)N1CCCC1` gave PK Bst >57 and YjeE inh inactive.
Screening CCC(C)Sc1nc2c(c(=O)[nH]c(=O)n2C)n1CCc1ccccc1 (centres undefined) returned PK Bst >57 and YjeE inh inactive.
For Nc1nc2ncc(CNc3ccc(C(=O)N[C@@H](CCC(=O)O)C(=O)O)cc3)nc2c(=O)[nH]1 the results were YjeE inh inactive.
`COCCN(CC(=O)Nc1ccccc1C)S(=O)(=O)c1ccc(S(=O)(=O)N2CCCC2)cc1` gave PK Bst >57 and YjeE inh inactive.
Screening COc1ccc(-c2nnc3sc(C(C)N4C(=O)c5ccccc5C4=O)nn23)cc1 (centres undefined) returned YjeE inh inactive.
Screening CCC1(CC)Cc2ccccc2C(N)=C1C#N returned PK Bst >57 and YjeE inh inactive.
For CC1CCCCC1NS(=O)(=O)c1ccc(S(=O)(=O)NCc2ccncc2)cc1 (centres undefined) the results were PK Bst >57 and YjeE inh inactive.
For Cc1nc(NCCNC(=O)c2ccco2)c2c(C)c(C)sc2n1 the results were PK Bst >57 and YjeE inh inactive.
`CC(=O)c1ccc(OCC(O)CN2CCC(C)CC2)cc1` (centres undefined) gave YjeE inh inactive.
For CCc1ccc(N2CC(C(=O)OCC(=O)NC3CCS(=O)(=O)C3)CC2=O)cc1 (centres undefined) the results were PK Bst >57 and YjeE inh inactive.
`CC1CCN(CC(=O)N2c3ccccc3Sc3cc4ccccc4cc32)CC1` gave YjeE inh inactive.
For CCOC(=O)c1cccc(NC(=O)CSc2nnc(C3CCCCC3)n2C)c1 the results were PK Bst >57 and YjeE inh inactive.
For CCNc1nc2c(c(=O)[nH]c(=O)n2C)n1Cc1ccc(F)cc1 the results were YjeE inh inactive.
For COc1ccc(S(=O)(=O)N2CCCN(CC(=O)Nc3ccc4c(c3)OCO4)CC2)cc1 the results were PK Bst >57 and YjeE inh inactive.
`NC1=C(c2ccc(F)cc2)C(=O)CS1` gave PK Bst >57 and YjeE inh inactive.
Screening CCN(CC)S(=O)(=O)c1ccc(O)c(C(=O)OCC(=O)N(C)Cc2ccccc2)c1 returned PK Bst >57 and YjeE inh inactive.
COC(=O)c1ccc(C(/C=C/[C@@H](C)C(=O)NCCN2CCCC2)NC(=O)OCc2ccccc2)cc1 (some centres undefined) was read as YjeE inh inactive.
Screening Cc1ccc(-c2ccc(=O)n(CCC(=O)NCCN3CCCCC3C)n2)cc1 (centres undefined) returned PK Bst >57 and YjeE inh inactive.
O=C(CCN1CCCCC1)N1CCc2c([nH]c3ccccc23)[C@H]1c1cccnc1 was read as YjeE inh inactive.
Screening CCOc1ccc(Nc2nc(CC(=O)OC)cc(=O)[nH]2)cc1 returned PK Bst >57 and YjeE inh inactive.
Screening COc1ccc(-c2nnc(SCC(N)=O)n2N)cc1 returned PK Bst >57 and YjeE inh inactive.
Screening Brc1ccc(Oc2nsnc2N2CCOCC2)cc1 returned PK Bst >57 and YjeE inh inactive.
For Cc1ccc2c(c1)NC(=O)C(CC(=O)NCCCN1CCc3ccccc3C1)O2 (centres undefined) the results were YjeE inh inactive.
For CCOc1ccc(NC(=O)C2CCCN(S(=O)(=O)c3c(C)n[nH]c3C)C2)cc1 (centres undefined) the results were YjeE inh inactive.
CCOC(=O)N1CCC(NC(=O)CNS(=O)(=O)c2ccc(Br)s2)CC1 was read as PK Bst >57 and YjeE inh inactive.
Screening Clc1ccccc1Cn1nnc2c(NCCN3CCOCC3)ncnc21 returned PK Bst >57 and YjeE inh inactive.

Entries listed so far containing fluorine:
O=C(CN(C1CCCCC1)S(=O)(=O)c1ccc(F)cc1)NCc1ccncc1 was read as YjeE inh inactive.
For CCNc1nc2c(c(=O)[nH]c(=O)n2C)n1Cc1ccc(F)cc1 the results were YjeE inh inactive.
`NC1=C(c2ccc(F)cc2)C(=O)CS1` gave PK Bst >57 and YjeE inh inactive.

Remaining list, next part
For Cn1nc(-c2ccc(Cl)cc2)c2cc(C(=O)NCCCN3CCCC3)sc21 the results were YjeE inh inactive.
`Cc1ccc2c(c1)C1C=CCC1C(C(=O)O)N2` (centres undefined) gave PK Bst >57 and YjeE inh inactive.
`c1cncc(-c2nc(Oc3ccc(-c4nnco4)cc3)c3c4c(sc3n2)CCCC4)c1` gave PK Bst >57 and YjeE inh inactive.
For O=C(NCCC1=CCCCC1)c1ccc(CN2CCOCC2)cc1 the results were PK Bst >57 and YjeE inh inactive.
CS(=O)(=O)N(CC(=O)N1CCCC1)c1ccc(OCc2ccccc2)cc1 was read as PK Bst >57 and YjeE inh inactive.
`Cc1ccc(C)c(C(=O)CC2(O)C(=O)Nc3ccccc32)c1` (centres undefined) gave PK Bst >57 and YjeE inh inactive.
Screening CCSc1nnc(NC(=O)c2c(-c3ccccc3Cl)noc2C)s1 returned YjeE inh inactive.
`CS(=O)(=O)Nc1cccc(-c2nc(Nc3ccccc3)c3ccccc3n2)c1` gave YjeE inh inactive.
For Cc1cc(S(=O)(=O)Nc2cccc(O)c2)c(C)s1 the results were YjeE inh inactive.
CC1CCC(NC(=O)c2ccc(N3CCCC3=O)cc2)CC1 (centres undefined) was read as PK Bst >57 and YjeE inh inactive.
Screening CCC(=O)N1CCNC(=O)C1CC(=O)Nc1ccc(C)c(Cl)c1 (centres undefined) returned PK Bst >57 and YjeE inh inactive.
COc1cc(OC)cc(-c2nnc(SCC(=O)N3CCOCC3)o2)c1 was read as PK Bst >57 and YjeE inh inactive.
`CNc1ncncc1-c1c(C)noc1C` gave YjeE inh inactive.
Screening Cc1cc(C)c(C#N)c(SCC(=O)NC2CC2)n1 returned PK Bst >26.
Cc1nnc(SCCOC(N)=O)n1C was read as PK Bst >57 and YjeE inh inactive.
Cc1ccc(S(=O)(=O)NCCC(=O)NCc2ccccc2)cc1 was read as PK Bst >11 and YjeE inh inactive.
COC(=O)[C@@]1(Cc2ccccc2)C=C[C@@H](C)N1C(=O)c1ccccc1 was read as YjeE inh inactive.
COC(=O)c1sc2nc(-c3ccccc3)nc(N3CCN(C)CC3)c2c1C was read as YjeE inh inactive.
For O=C(NCCCN1CCOCC1)c1ccc(Br)cc1 the results were YjeE inh inactive.
For Cc1cc(C(F)(F)F)nc(NCc2ccc(F)cc2)n1 the results were PK Bst >57 and YjeE inh inactive.
For Cc1ccccc1-n1c(SCC(=O)N2CCOCC2)nc(O)cc1=O the results were PK Bst >57 and YjeE inh inactive.
Screening Cc1cc(C)nc(-n2nc(C)c(Sc3ccc(F)cc3)c2N)n1 returned PK Bst >57 and YjeE inh inactive.
For CCn1nc(C(=O)O)c(=O)c2cc3c(cc21)OCO3 the results were PK Bst >26 and YjeE inh inactive.
For O=S(=O)(Nc1ccc2c(c1)nc1n2CCN(Cc2ccccc2)C1)c1ccccc1 the results were PK Bst >57 and YjeE inh inactive.
`CCOC(=O)N1CCN(C(=O)CSc2nnc(-c3ccccc3OC)o2)CC1` gave PK Bst >57 and YjeE inh inactive.
Screening CCn1c(SCC(=O)c2[nH]c(C)c(C(C)=O)c2C)nnc1-c1cccs1 returned PK Bst >57 and YjeE inh inactive.
O=C1C(=O)N(CCN2CCOCC2)C(c2ccncc2)/C1=C(/O)c1ccc2c(c1)OCO2 (centres undefined) was read as PK Bst >57 and YjeE inh inactive.
For Cn1c(/C=N/n2cnnc2)nc2ccccc21 the results were YjeE inh inactive.
Screening O=c1oc2ccc(Br)cc2cc1-c1nc2ccccc2o1 returned PK Bst >57 and YjeE inh inactive.
`N#Cc1ccccc1Sc1ccccc1C(=O)OCC(=O)N1CCN(C(=O)c2ccco2)CC1` gave PK Bst >57 and YjeE inh inactive.
For CC(C)=CCC(C)(C)CNC(=O)NC1CCCCC1 the results were PK Bst >26.
CC(=O)c1cc(-c2ccccc2)n(CC(=O)N2CCN(C3CCCC3)CC2)c1C was read as PK Bst >57 and YjeE inh inactive.
For CC(C)Oc1cccc(C(=O)Nc2ccc(NC(=O)c3ccco3)cc2)c1 the results were PK Bst >57 and YjeE inh inactive.
For O=C1OCCC1Sc1nnc(-c2ccc(Br)cc2)o1 (centres undefined) the results were YjeE inh inactive.
For CC(C)C(=O)Nc1c(C(=O)c2ccc(F)cc2)oc2ccccc12 the results were YjeE inh inactive.
For CC(=O)Nc1cccc(NC(=O)CSc2nnc(Cc3cccn3C)n2-c2ccc(F)cc2)c1 the results were PK Bst >57 and YjeE inh inactive.
`Cc1ccc(C2CC(c3ccc(F)cc3)Nc3nc(N)nn32)cc1` (centres undefined) gave YjeE inh inactive.
`Cc1onc(-c2ccccc2)c1C(=O)Nc1ccc(-c2nnc3n2CCCCC3)cc1` gave PK Bst >57 and YjeE inh inactive.
`CCOc1ccc(C(C)=O)cc1COc1ccc(-n2cnnn2)cc1` gave PK Bst >11 and YjeE inh inactive.
For O=C(O)CCC(=O)N1CCc2cc(S(=O)(=O)NCc3cccs3)ccc21 the results were PK Bst >57 and YjeE inh inactive.
Screening COc1ccccc1N1CCN(C(c2cccs2)C(C)NC(=O)c2cccs2)CC1 (centres undefined) returned PK Bst >57 and YjeE inh inactive.
Screening COc1ccc(N(CC(=O)NCc2cccs2)S(=O)(=O)c2c(C)nn(C)c2C)cc1 returned YjeE inh inactive.
`O=C(Nc1cccnc1)c1ccc2snnc2c1` gave PK Bst >57 and YjeE inh inactive.
Screening CCOC(=O)c1c(-c2cccs2)csc1NC(=O)CN1CCOCC1 returned YjeE inh inactive.
Screening C=CCn1c(SCCC(=O)O)nc2c1c(=O)n(C)c(=O)n2C returned PK Bst >57 and YjeE inh inactive.
`CN1C(=O)N2CN(C3CCCCC3)CN3C(=O)N(C)C1C23` (centres undefined) gave YjeE inh inactive.
`Cn1c(Cn2c(=O)sc3ccccc32)nnc1SCC(=O)N1CCOCC1` gave YjeE inh inactive.
`COc1ccc(S(=O)(=O)N(C)c2c(C)n(C)n(-c3ccccc3)c2=O)cc1OC` gave YjeE inh inactive.
Screening CCSC(SCC)[C@H](O)[C@@H](O)[C@H](O)[C@H](O)CO returned PK Bst >26.
CCCc1cc(=O)[nH]c(SCc2cc(C(=O)OC)c(C)o2)n1 was read as PK Bst >57 and YjeE inh inactive.
`CCN(CC)CCOC(=O)[C@@H](Cc1cccc2ccccc12)C[C@@H]1CCCO1` gave YjeE inh inactive.
N#Cc1cn(CC(=O)N2CCCC2)c2ccccc12 was read as PK Bst >57 and YjeE inh inactive.
COc1ccc(C(CNC(=O)c2cc(C)oc2C)N2CCOCC2)cc1 (centres undefined) was read as PK Bst >57 and YjeE inh inactive.
CCOc1ccc(-c2nnc(-c3cccnc3)o2)cc1OCC was read as YjeE inh inactive.

Of the compounds above, these contain an aryl methoxy group:
`COc1ccc(CN2CCN(S(=O)(=O)c3ccc(NC(C)=O)cc3)CC2)cc1OC` gave PK Bst >57 and YjeE inh inactive.
COc1ccc(C(=O)N2CCN(S(=O)(=O)c3cc(Cl)ccc3OC)CC2)cc1 was read as PK Bst inconclusive and YjeE inh inactive.
Screening COc1ccc(-c2nnc3sc(C(C)N4C(=O)c5ccccc5C4=O)nn23)cc1 (centres undefined) returned YjeE inh inactive.
For COc1ccc(S(=O)(=O)N2CCCN(CC(=O)Nc3ccc4c(c3)OCO4)CC2)cc1 the results were PK Bst >57 and YjeE inh inactive.
Screening COc1ccc(-c2nnc(SCC(N)=O)n2N)cc1 returned PK Bst >57 and YjeE inh inactive.
COc1cc(OC)cc(-c2nnc(SCC(=O)N3CCOCC3)o2)c1 was read as PK Bst >57 and YjeE inh inactive.
`CCOC(=O)N1CCN(C(=O)CSc2nnc(-c3ccccc3OC)o2)CC1` gave PK Bst >57 and YjeE inh inactive.
Screening COc1ccccc1N1CCN(C(c2cccs2)C(C)NC(=O)c2cccs2)CC1 (centres undefined) returned PK Bst >57 and YjeE inh inactive.
Screening COc1ccc(N(CC(=O)NCc2cccs2)S(=O)(=O)c2c(C)nn(C)c2C)cc1 returned YjeE inh inactive.
`COc1ccc(S(=O)(=O)N(C)c2c(C)n(C)n(-c3ccccc3)c2=O)cc1OC` gave YjeE inh inactive.
COc1ccc(C(CNC(=O)c2cc(C)oc2C)N2CCOCC2)cc1 (centres undefined) was read as PK Bst >57 and YjeE inh inactive.

Assay outcomes: PubChem, National Center for Advancing Translational Sciences (NCATS)

Not all compounds are listed; the hit share may differ from the screen's.
